# LASV entry inh: Lassa virus entry inhibition; Lassa virus pseudotype entry inhibition, cell reporter; control for the full effect not named in the record; Potency, µM (highest dose often 37.9 µM), for inactives: at the top dose activity change, negative = inhibition, usual class: inhibitors; 1.2% of 300,000 active; AID 540256; active means well fitted inhibition curve with a large enough effect; inconclusive means small, poorly fitted or top-dose-only effect, or effect the other way; inactive means flat fitted curve, though single readings scatter; tested in HEK293 cells; note: % is set by controls: 0 for no effect and ±100 for the full control effect; nearly all actives have a fitted effect of over 50% in size; luciferase read-out
# MARV entry inh: Marburg virus entry inhibition; Marburg virus pseudotyped entry inhibition, cell reporter; control for the full effect not named in the record; about a third of the inactives were read at about 46 µM; Potency, µM (highest dose often 37.8 µM), inactives show at the highest dose activity change, negative = inhibition, usual class: inhibitors; 1.8% of 300,000 active; AID 540276; active = well fitted inhibition curve with a large enough effect; inconclusive = small, poorly fitted or top-dose-only effect, or effect the other way; inactive = flat fitted curve, though single readings scatter; tested in HEK293 cells; about a fifth of its hits are not listed in these tables; note: % is set by controls: 0 for no effect and ±100 for the full control effect; luciferase read-out
# SARS PLP yeast: blocks SARS-CoV papain-like protease in a yeast assay; S. cerevisiae expressing SARS-CoV PLpro, growth rescue; control for the full effect not named in the record; Potency, µM (doses to about 32.9 µM), inactives show at the highest dose activity, positive = growth rescue; 0.19% of 330,000 active; note: 0% is about no effect; nearly all actives have a fitted effect of over 55% in size; growth read by luminescence after 48 h
# NS1 inh: influenza NS1 inhibition. S. cerevisiae slowed by influenza A NS1, growth recovery by OD600. Potency, µM (titrated, usually from 46.1 µM), inactives show at the highest dose activity, positive = more growth. 0.4% of 270,000 active; note: actives are rising curves; nearly all actives have a fitted effect of over 50% in size
#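 Growth recovery, yeast-based: influenza A NS1 expressed in S. cerevisiae causes slow growth, and suppressors are detected by OD600. The parent strain without NS1 is used as positive control.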
# RE007 growth inh: less growth of the S. pombe RE007 Vpr strain; Potency, µM (series often up to 92.2 µM), for the others: top-dose activity change, negative = less growth; S. pombe RE007 Vpr strain, BacTiter-Glo ATP luminescence, 24 h; control for the full effect not named in the record; 0.21% of 360,000 active; active = well fitted falling curve with a large enough effect; inconclusive = small, poorly fitted or top-dose-only effect; inactive = no such curve, though single readings can be large or run the other way;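 note: % is set by controls: 0 for no effect and ±100 for the full control effect; nearly all actives have a fitted effect of over 50% in size; the assay follows cell death caused by Vpr and the record does not say whether a fall means rescue or toxicity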
#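 Fission yeast RE007 carrying one integrated HIV-1 vpr copy, seeded at OD 0.01 in PMG+AL medium with 23 nL pinned compound. Grown 24 h at 30 degrees; viability read by BacTiter-Glo luminescence after 5 min.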
# StopGo reporter: FMDV 2A StopGo reporter, luciferase signal. human cells with a luciferase reporter of 2A StopGo recoding; control for the full effect not named in the record. Potency, µM (series often up to 57.9 µM), for the others: top-dose signal change, negative = less light. 1.2% of 410,000 active. AID 1159524; active = well fitted falling curve with a large enough effect; inconclusive = small, poorly fitted or top-dose-only effect; inactive = no such curve, though single readings can be large or run the other way; tested in HEK293T cells; note: % is set by controls: 0 for no effect and ±100 for the full control effect; nearly all actives have a fitted effect of over 45% in size; luciferase light after 4 h
# Cruzain inh Det: cruzain (T. cruzi) inhibition with detergent; purified cruzain, Z-FR-AMC fluorescence, 0.01% Triton; Potency, µM, for inactives: max response, negative = inhibition, most hits filed as inhibitors; 0.43% of 200,000 active; active = well fitted curve in the direction sought with a large enough effect; inconclusive = small, poorly fitted or top-dose-only effect, or another doubt; inactive = no such curve, though single readings can be large; an effect the other way counts as inactive or inconclusive;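 note: plate controls were neutral wells for no effect and buffer without enzyme for full effect; nearly all actives have a fitted effect of over 40% in size; top concentration of the series not given in the record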
# Target sequence (P25779 123-467 limits assumed): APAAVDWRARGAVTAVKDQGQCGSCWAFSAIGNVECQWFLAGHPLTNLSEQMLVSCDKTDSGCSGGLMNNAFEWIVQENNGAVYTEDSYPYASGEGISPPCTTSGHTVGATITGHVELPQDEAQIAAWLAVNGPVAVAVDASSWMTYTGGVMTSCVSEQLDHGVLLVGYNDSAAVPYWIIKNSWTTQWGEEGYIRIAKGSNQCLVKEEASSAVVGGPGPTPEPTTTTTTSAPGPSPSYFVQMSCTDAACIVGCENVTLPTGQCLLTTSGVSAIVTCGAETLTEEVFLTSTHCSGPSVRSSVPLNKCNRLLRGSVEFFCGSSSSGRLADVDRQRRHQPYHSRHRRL
#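 Steps: dispense cruzain (1.5 nM final) in acetate buffer pH 5.5 with DTT and 0.01% Triton X-100; pin-transfer compounds; incubate 15 min RT; add Z-FR-AMC (2 uM final); read fluorescence every 30 s, using the 60 s intensity change.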
# Cruzain inh noDet: cruzain (T. cruzi) inhibition without detergent; P25779; purified cruzain, Z-FR-AMC fluorescence, no detergent; Potency, µM, without a hit: max response, negative = inhibition, hits mostly inhibitors; 2.3% of 200,000 active; active = well fitted curve in the direction sought with a large enough effect; inconclusive = small, poorly fitted or top-dose-only effect, or another doubt; inactive = no such curve, though single readings can be large; an effect the other way counts as inactive or inconclusive;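 note: plate controls were enzyme without inhibitor for no effect and buffer without enzyme for full effect; nearly all actives have a fitted effect of over 40% in size; top concentration of the series not given in the record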
#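 Detergent-free condition (0.00005% Triton X-100) in acetate buffer pH 5.5 with DTT. 1.5 nM enzyme and compound were pre-mixed 15 min, then 2 uM Z-FR-AMC substrate added; reaction progress from fluorescence change between first and third reads (60 s).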
# * = called active by the depositor; ? = inconclusive; . = no result given; & = joins results of further samples; [ ] = another dose, or the depositor's remark. Unless noted, calls come from the whole dose curve; as a rule, active means well fitted rising curve with a large enough effect; inconclusive means small, poorly fitted or top-dose-only effect; inactive means no such curve, though single readings can be large or run the other way. Potency is the fitted concentration of half-maximal effect. Random draw from the library, and some 4.7% of all compounds hit somewhere here.
SMILES,LASV entry inh,MARV entry inh,SARS PLP yeast,NS1 inh,RE007 growth inh,StopGo reporter,Cruzain inh Det,Cruzain inh noDet
O=C(OCc1ccc(Br)cc1)c1ccncc1,.,.,0%,-3%,0%,38%[activator],.,.
CC(C)Sc1nc(C(F)(F)F)cc(=O)n1-c1ccccc1,1%,4%,2%,-20%,4%,-20%,0.9%,11%
CCCn1ncc(CN2CCC(C(=O)Nc3cccc(-c4cccc(F)c4)c3)CC2)c1C,?,2.5µM*,2%,5%,-6%,-12%,.,.
CCc1ccc(NC(=O)CCCn2nc(C)c3c(C)n(-c4ccccc4)nc3c2=O)cc1,-8%[46.1 µM],.,.,.,.,-13%,-0.2%,8%
CCCNC1=C(N(C(C)=O)c2cccc(F)c2)C(=O)c2ccccc2C1=O,?,?,-21%,-27%,-26%,28µM*,-5.5%,-6%
COn1c(SC(C)C)nc2ccccc2c1=O,12%,-5%,6%,-15%,-12%,16%,4.3%,0%
Cc1cccc(OCC(=O)NCCCNC(=O)c2ccco2)c1,3%[46.1 µM],-14%[46.1 µM],8%,26%,-1%,-7%,.,.
Cc1cc(C)cc(NC(=S)NCc2ccc(S(N)(=O)=O)cc2)c1,9%,-12%[14.2 µM],-1%,.,-13%,-20%,.,.
C=CCNC(=O)c1ccc(-c2nc(-c3ccccc3)cs2)cc1,?,?,-1%,4%,-13%[3.69 µM],21%,-0.8%,1%
Cn1c(=O)c2c(nc(SCCN3CCCCC3)n2Cc2ccc(Cl)cc2)n(C)c1=O,?,?,-1%,1%,-8%,-5%,-4.9%,-5%
COc1ccc(-c2cc(C(=O)N/N=C(\C)c3cccnc3)c3ccccc3n2)cc1,-27%,-20%,0%,19%,1%,29%,.,.
COCc1cc(C)nc(SCC(=O)Nc2ccc(N3CCOCC3)cc2)c1C#N,11%,20%,25%,15%,-20%,-6%,.,.
CCC(C)c1ccc(OCc2ccc(C(=O)O)o2)cc1 (stereo not given),?,?,-6%,-41%,17%,11µM*,.,.
Cc1coc2cc3oc(=O)c(CCC(=O)N4C[C@H]5C[C@@H](C4)c4cccc(=O)n4C5)c(C)c3cc12,.,.,0%,1%,-18%,-13%,.,.
COc1ccc(OC)c(C=NNC(=O)c2ccc(NS(=O)(=O)c3cccs3)cc2)c1,-4%,?,-13%,.,-2%,1%,.,.

# Filtered by structure, those above with a carbonyl joined to an NH by a bond outside any ring
SMILES,LASV entry inh,MARV entry inh,SARS PLP yeast,NS1 inh,RE007 growth inh,StopGo reporter,Cruzain inh Det,Cruzain inh noDet
CCCn1ncc(CN2CCC(C(=O)Nc3cccc(-c4cccc(F)c4)c3)CC2)c1C,?,2.5µM*,2%,5%,-6%,-12%,.,.
CCc1ccc(NC(=O)CCCn2nc(C)c3c(C)n(-c4ccccc4)nc3c2=O)cc1,-8%[46.1 µM],.,.,.,.,-13%,-0.2%,8%
Cc1cccc(OCC(=O)NCCCNC(=O)c2ccco2)c1,3%[46.1 µM],-14%[46.1 µM],8%,26%,-1%,-7%,.,.
C=CCNC(=O)c1ccc(-c2nc(-c3ccccc3)cs2)cc1,?,?,-1%,4%,-13%[3.69 µM],21%,-0.8%,1%
COc1ccc(-c2cc(C(=O)N/N=C(\C)c3cccnc3)c3ccccc3n2)cc1,-27%,-20%,0%,19%,1%,29%,.,.
COCc1cc(C)nc(SCC(=O)Nc2ccc(N3CCOCC3)cc2)c1C#N,11%,20%,25%,15%,-20%,-6%,.,.
COc1ccc(OC)c(C=NNC(=O)c2ccc(NS(=O)(=O)c3cccs3)cc2)c1,-4%,?,-13%,.,-2%,1%,.,.

# The list goes on.
SMILES,LASV entry inh,MARV entry inh,SARS PLP yeast,NS1 inh,RE007 growth inh,StopGo reporter,Cruzain inh Det,Cruzain inh noDet
Cc1nc2sc(C(c3ccc(Cl)cc3)N3CCN(C(=O)c4ccco4)CC3)c(O)n2n1 (stereo not given),24%,-17%[46.1 µM],-2%,-46%,12%,8%,-0.7%,?
CCOC(=O)Cc1c(C)nc2c(-c3ccc(Cl)cc3)c(C(F)(F)F)nn2c1C,22%[46.1 µM],-7%[46.1 µM],.,.,.,?,-15%,-21%
CC(C)(C)c1ccc(C(=O)OC/C(O)=C(\C#N)c2nc3ccccc3s2)cc1,6%,?,5%,2%,-27%,-2%,-3.6%,25µM*
Cn1nnc2c(N3CCN(c4ccccc4F)CC3)ncnc21,14%[46.1 µM],.,.,.,.,-14%,0.1%,-1%
Nc1nc(SCc2ccc(Cl)cc2Cl)c2ncn(C3OC(CO)C(O)C3O)c2n1 (stereo not given),-14%[46.1 µM],-20%[46.1 µM],.,.,-1%,-9%,.,.
Cc1ccc(Cl)cc1NC(=O)Cc1ccc(-n2c(C)nc3cccnc32)cc1,-20%[46.1 µM],.,.,.,.,-21%,?,8%
O=C(O)c1cc2ccccc2c(=O)s1,9%,25%[46.1 µM],0%,-3%,7%,18%,2.9%,-17%
Cc1onc(-c2c(Cl)cccc2Cl)c1C(=O)c1ccccc1,1%,?,-1%,-1%,2%,-11%,.,.
CN1CCN(C(=O)c2cccc(NS(=O)(=O)c3ccc(Br)cc3)c2)CC1,?,?,-7%,.,-9%,-4%,.,.
CCOc1ccccc1NC(=O)CNC(=O)Cc1ccccc1,?,3%,-1%,-4%,-15%,6%,.,.
CCOc1cc(CNn2cnnc2)ccc1OCC(=O)NC1CCCCC1,-7%,-11%,2%,11%,3%,4%,2.9%,1%
CN(C)c1ccc(CNC(=O)CN2C(=O)CCn3nc(-c4cn(C)c5ccccc45)cc32)cc1,13%[46.1 µM],.,.,.,.,-15%,-4.0%,?
CCC(C)N=C1Sc2nc3ccc(C)cc3cc2CN1CCOC (stereo not given),11%,16%[46.1 µM],6%,.,4%,-22%,.,.
CCCc1nn(C)c(C(=O)Nc2cccc(Cl)c2)c1Cl,1%,-3%,1%,-11%,-2%,-19%,-5.5%,-2%
COCc1nnc(NC(=O)c2ccc(S(=O)(=O)N3CCOCC3)cc2)o1,.,.,1%,6%,-5%,-11%,.,.
COc1ccc(N(CC(=O)NCC2CCCO2)S(=O)(=O)c2ccccc2)cc1OC (stereo not given),-13%[46.1 µM],-8%[46.1 µM],-6%,-4%,1%,-15%,.,.
Oc1ccccc1-n1c(-c2ccccc2)ccc1-c1ccccc1,.,.,-4%,-96%,6%,?,.,.
O=C(CCc1ccc(O)c(O)c1)NNC(=S)Nc1ccc(Br)cc1Cl,?,?,1%,9%,4%,29%,.,.
CC(OC(=O)c1oc2ccccc2c1CSC1CCCCC1)C(=O)NC(N)=O (stereo not given),-5%,?,10%,-2%,11%,?,-2.5%,?
Cc1ccc(-c2nc3ncccn3c2NC(=O)C2CC2)cc1,-25%,19%,18%,-12%,0%,16%,-9.7%,-6%
C#CCNC(=O)C1=C[C@H](c2cn(C(C)=O)c3ccccc23)C[C@H](OCc2ccc(CO)cc2)O1,.,.,0%,-2%,-6%,?,.,.
CCC(C)C(NC(=O)c1ccccc1NC(=O)c1ccco1)C(=O)O (stereo not given),2%,29%,5%,12%,3%,17%,7.9%,4%
CN(Cc1ccccc1F)C(=O)c1cccc(NC(=O)CC2SC(N3CCCCC3)=NC2=O)c1 (stereo not given),?,?,.,.,28%,?,.,.
CCC(C)(C)n1nnnc1CN(Cc1cccs1)Cc1cc2cc(OC)ccc2[nH]c1=O,15%,?,-1%,7%,-9%,.,-0.4%,?
Cc1cccnc1NC(=O)C1c2ccccc2Oc2ccccc21,7%,20%,-3%,2%,1%,-8%,0.1%,-12%
COC(=O)c1cc(C)nc(Sc2ccccc2N)n1,4%[46.1 µM],?,0%,-4%,-13%,11%,.,.
Nc1c(C(=O)c2ccccc2)sc2nsc(SCCN3CCCC3)c12,6.3µM*,?,-4%,-1%,-5%,-16%,.,.
OCCN1CCN(c2ncnc3c2cnn3-c2cccc(Cl)c2)CC1,?,.,.,.,.,8%,0.5%,-9%
CCOc1cc(CNC(=O)NC2COc3ccccc3C2)cc(OCC)c1OCC (stereo not given),-17%[46.1 µM],.,.,.,.,-1%,-1.8%,?
CCN(CC)CCN1C(=O)C(=O)/C(=C(/O)c2cnn(-c3ccccc3)c2C)C1c1cccnc1 (stereo not given),10%,6%,6%,-4%,38%,8%,-4.5%,-10%
Cc1ccc(SCCC(=O)NCc2ccccn2)cc1,9%,?,0%,.,9%,-8%,.,.
COc1ccc(N2CCN(C(c3cccs3)C(C)NC(=O)c3ccco3)CC2)cc1 (stereo not given),-24%[14.3 µM],7%,-15%,-8%,8%,?,-1.3%,6%
Cc1ccc(N=Cc2c(O)c3ccccc3oc2=O)c(C)c1,.,.,0%,17%,-7%,6%,.,.
CC(C)Nc1nc(-c2ccncc2)nc(-c2ccccc2)c1C#N,.,.,-1%,3%,-7%,-26%,.,.
CCNCc1nc2cc(Cl)ccc2c(=O)[nH]1,0%,-7%,0%,.,37%,-8%,.,.
O=C(C=NNc1ccccc1)c1ccccc1,?,?,.,.,41%,-2%,.,.
CCOC(=O)C1=C(CC)Nc2ccccc2N=C1NC(=O)c1ccc(OC)c(S(=O)(=O)N2CCCCC2C)c1 (stereo not given),.,.,1%,7%,1%,6%,.,.
O=C(O)CCC(=O)Nc1ccc(C(=O)OCC(=O)c2ccc(Cl)cc2Cl)cc1,1%,8%,21%,1%,12%,-7%,.,.
O=C(NCc1ccccc1Cl)c1cnc2n(c1=O)CCS2,.,.,-2%,-47%,18%,9%,4.8%,-11%
O=C(NCCN1CCOCC1)c1cc(-c2ccc(Cl)cc2)on1,?,3%,4%,-4%,3%,13%,-6.9%,-6%
N[C@H](C(=O)O)[C@@H]1C[C@@H]1C(=O)O,.,6%&6%,.,.,.,-11%&-15%,-3.8%&-4.6%,5%&3%

# Screens (PubChem)
